Screens (PubChem)
LANA-H2A inh: blocks KSHV LANA binding to histone H2A/H2B | cell-free LANA-H2A/H2B peptide, fluorescence polarization | inhibition, % (no concentration beside the values) | 320,000 tested, 0.6% active; in the data active = inhibition mostly above about 10%, no sharp cut-off; inactive = mostly below about 6.7%;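 note: stock transfer was 7.5 nL into about 10 µL; 0% = median of vehicle wells and 100% = median of positive control wells; one replicate is shown; the record names a cut of 25% in any replicate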
T cruzi repl: T. cruzi replication inhibition; T. cruzi beta-gal in NIH3T3, luminescence, 90 h; AID 1885; inhibition, % (no concentration beside the values); 300,000 tested, 1.4% active;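 active = mean inhibition across valid replicates above about 55%, limit read from the data; inconclusive = mean below that limit but half or more replicates reach it; inactive = mean below it, under half of replicates reach it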;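 note: signal also drops with host cell toxicity which is not excluded here; 0% = plate median of DMSO wells and 100% = zero luminescence signal; higher percent means less beta-gal luminescence so fewer parasites; stock transfer was 50 nL into about 50 µL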
ALR H2O2 inh: human ALR oxidase inhibition via reduced H2O2. P55789. purified ALR, DTT oxidation, H2O2 HRP-luminol luminescence. inhibition, % (concentration not given with the values). 290,000 tested, 3.8% active. AID 485317;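 active = mean and each replicate at 75% or more; inconclusive = only one of the two met; inactive = neither met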;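 note: stock transfer was 7.5 nL into about 7.5 µL; 0% = neutral wells and 100% = wells with inactivated enzyme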
Target sequence (P55789 whole entry, looked up): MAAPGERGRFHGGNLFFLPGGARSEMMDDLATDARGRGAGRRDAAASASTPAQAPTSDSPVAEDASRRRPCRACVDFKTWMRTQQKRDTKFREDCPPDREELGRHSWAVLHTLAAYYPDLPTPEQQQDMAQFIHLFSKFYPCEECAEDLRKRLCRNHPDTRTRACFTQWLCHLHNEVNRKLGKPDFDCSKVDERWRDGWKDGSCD
Calb FLC: affects C. albicans growth with fluconazole. C. albicans CaCi-2 (fluconazole-resistant clinical isolate) + fluconazole, Alamar Blue growth, 48 h. growth inhibition, % (concentration not given with the values). 300,000 tested, 0.57% active. AID 1979;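 active = most replicates above 75%; inconclusive = exactly half above 75%; inactive = most below 75%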;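 note: all wells also contain fluconazole at 8 µg/ml as a sub-toxic cotreatment; 0% = median of DMSO wells and 100% = median of geldanamycin control wells; wells of about 8 µL received 7.5 nL stock; the first replicate is given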
Beta apoptosis: beta cell apoptosis inhibition; 300,000 tested, 0.8% active; INS-1E cytokine-induced death, ATP luminescence, 48 h; percent of positive-control rescue, neutral wells zero; AID 435005; protection from apoptosis, % (no concentration beside the values);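 active = all replicates at 75% or more, or half of them and the mean; inconclusive = half reach 75% but not the mean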;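 note: 0% = cytokine-treated negative control wells and 100% = positive control rescue; higher means more ATP so stronger rescue from cytokine killing; wells of about 40 µL received 100 nL stock; the first replicate is given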
B2AR ag: agonists of human beta-2 adrenergic receptor inducing internalization | P07550 | Am2.2-beta2AR cells, FAP receptor internalization, flow cytometry; reference of the scale not given here | response, % (concentration not given with the values) | 340,000 tested, 0.43% active;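 active = response above a set limit, near 3 SD of response in nonfluorescent compounds, cut at about 42% in these data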;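 note: stock transfer was 100 nL into about 11 µL; a reference agonist was the positive control; negative values mostly stem from fluorescent compounds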
Target sequence (P07550 whole entry, looked up): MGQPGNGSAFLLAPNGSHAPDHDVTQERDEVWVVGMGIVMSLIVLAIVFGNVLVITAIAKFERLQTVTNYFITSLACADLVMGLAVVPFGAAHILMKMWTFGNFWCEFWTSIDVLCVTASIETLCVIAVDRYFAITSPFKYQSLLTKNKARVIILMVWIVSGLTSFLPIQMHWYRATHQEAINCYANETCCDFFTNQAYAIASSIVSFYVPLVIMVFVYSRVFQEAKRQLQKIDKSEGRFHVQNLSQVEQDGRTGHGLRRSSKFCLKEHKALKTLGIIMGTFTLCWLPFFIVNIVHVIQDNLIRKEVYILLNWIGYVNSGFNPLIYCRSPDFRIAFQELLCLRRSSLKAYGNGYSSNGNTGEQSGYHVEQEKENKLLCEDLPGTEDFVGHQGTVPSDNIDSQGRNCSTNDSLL
A1 inh: inhibitors of the anti-apoptotic protein A1, read as caspase activation; 330,000 tested, 0.066% active; MEF A1-2A-BIM cells, Caspase-Glo 3/7 luminescence, 3 h; percent of clofoctol response, vehicle zero; AID 2462; caspase activation, % (test concentration not listed);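 active = over half of replicate activation scores above 10%, or exactly half above 10 with the replicate mean above 10; inconclusive = replicate mean below 10 yet half the replicates above 10; inactive = over half of replicates below 10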;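 note: wells of about 30 µL received 50 nL stock; many hits fall short of the cut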
rRNA inh HTS: selective bacterial rRNA inhibition in E. coli; E. coli WT GFP vs humanized-ribosome RFP mutants, fluorescence, 24 h; active compounds read low; DMSO median 0, no signal -100; 350,000 tested, 1.6% active; GFP signal change (wild-type ribosome), % (test concentration not listed);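 active = significant combined selectivity score with lowered wild-type GFP, culture density cut under 30%, mutant RFP and density less affected; inactive = any of these conditions unmet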; note: one replicate is shown; some compounds called inactive have numbers as strong as hits
rRNA inh HTS OD600: recorded beside rRNA inh HTS, whose call it bears; OD600 change, %; measured here: OD600 growth;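 optical density of the mix in the first replicate; 0 = DMSO median and -100 = no signal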
rRNA inh HTS RFP: further read-out of rRNA inh HTS, marked with its call; RFP signal change, %; measured here: RFP humanized mutant strains;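 first replicate; 0 = DMSO median and -100 = no signal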
The depositor's hits bear a star; ? = inconclusive; . = not tested or not shown. The list is partial; rates above refer to the full screens.

Screens in order – LANA-H2A inh | T cruzi repl | ALR H2O2 inh | Calb FLC | Beta apoptosis | B2AR ag | A1 inh | rRNA inh HTS | rRNA inh HTS OD600 | rRNA inh HTS RFP
Cc1cc(C)n2nc(SCc3ccccc3)nc2n1
→ 2.3 | 10 | -12 | -3 | 5 | -22 | -0.1 | -3 | -9 | 0.5
O=C(Nc1ccccc1Cl)N1CCN(c2ccccn2)CC1
→ -1.5 | -16 | -9 | 5 | 1 | -2 | -1.0 | 0 | 2 | -3.7
NS(=O)(=O)c1ccc(-c2ccc(C=NC3CCS(=O)(=O)C3)o2)cc1 (stereo unspecified)
→ -0.9 | 11 | -7 | 5 | -2 | -3 | 0.8 | . | . | .
O=C(CCC(=O)N1CCN(c2ccc(F)cc2)CC1)c1ccc(F)cc1
→ 4.1 | -6 | 28 | 3 | -2 | . | 1.3 | -20* | -5.9* | 8.8*
CCc1nc(N=Nc2c(O)[nH]c3ccccc23)c2c3c(sc2n1)CCC3
→ 10 | -7 | 4 | 1 | 5 | 11 | 8.9* | 2 | 0 | 2.2
COc1ccc(C(=O)Nc2ccc(CN3CCOCC3)cc2)cc1Br
→ -2.7 | -3 | -4 | -7 | . | 8 | 0.4 | -4 | -4 | -2.3
O=Cc1cn(-c2ccccc2)nc1-c1cccnc1
→ 3.4 | -12 | -4 | 3 | 0 | -6 | 0.3 | 0 | 2 | 1.2
Cc1cc(C)c(OCC(=O)OCC(=O)N2CCc3ccccc3C2)c(C)c1
→ -6.0 | -8 | -97 | 7 | 0 | 1 | 0.6 | -16* | 0.6* | 3.5*
CCOC(=O)C1=C(C)NC(=S)N(C(C)=O)C1c1ccc(Cl)cc1 (stereo unspecified)
→ -5.6 | 22 | -5 | -4 | 0 | 20 | 1.2 | . | . | .
COc1ccc(CN2CCCC(C(=O)c3ccc(Cl)cc3)C2)cc1Cn1cncn1 (stereo unspecified)
→ 1.9 | 68* | -5 | 33 | -2 | -6 | -0.7 | 0 | 3 | -1.6
O=C(CCC(NC(=O)OCc1ccccc1)C(=O)OCC(=O)N1CCCCC1)OCC(=O)N1CCCCC1 (stereo unspecified)
→ -1.8 | -9 | 0 | 37 | 4 | -2 | 0.4 | . | . | .
Cc1cccc(NC(=S)NC2CC3CCCC(C2)N3CC(C)C)c1C (stereo unspecified)
→ -2.6 | -13 | -7 | 20 | -1 | 3 | 0.1 | . | . | .
CCOc1ccc(N2C(=O)CC(NCc3ccc(F)cc3)C2=O)cc1 (stereo unspecified)
→ -0.6 | -16 | 3 | 5 | -6 | -9 | 0.4 | . | . | .
COc1ccc2nc(Nc3nc(-c4cc5ccccc5oc4=O)cs3)sc2c1
→ 0.0 | -10 | . | -14 | 21 | 17 | 0.6 | . | . | .
COCCN(C(=S)Nc1ccc(OC)c(Cl)c1)C1CCN(C(C)C)CC1
→ -1.0 | 0 | -9 | 5 | -11 | 11 | -0.1 | -1 | 1 | 0.2
O=C(NNC(=S)NC1CCCCC1)c1cccs1
→ -7.3 | -40 | ? | -4 | 17 | 6 | 0.2 | . | . | .
Cc1oc2ccc(OCc3ccccc3F)cc2c1C(=O)O
→ 0.1 | -5 | -5 | 20 | 1 | 16 | -2.9 | . | . | .
Cc1ccc([N+](=O)[O-])c(OCCCN2CCC(Cc3ccccc3)CC2)c1
→ 3.6 | 44 | . | 40 | 9 | 9 | -0.5 | -48 | -75 | -15
CC(OC(=O)C1CC1)C(=O)Nc1cc(C(F)(F)F)ccc1Cl (stereo unspecified)
→ 3.1 | -13 | -5 | -8 | -2 | -8 | 0.9 | 0 | -6 | -3.4
CCC1=C(OC(=O)N(CC)CC)N2C(=O)OC(=NCC3CC3)[C@]2(Cc2ccccc2)[C@H]2C1=CC[C@H]1C(=O)N(CC(=O)OC)C(=O)[C@H]12
→ -1.8 | 17 | -42 | 41 | 2 | . | 0.4 | 6 | 23 | -12
COc1ccc(C(=O)NC(=O)CSc2nnc(-c3ccco3)n2-c2ccccc2)cc1
→ 14 | . | -5 | . | -5 | 0 | 0.1 | . | . | .
COc1cc2nc(-c3ccccc3C)oc(=O)c2cc1OC
→ -2.6 | -4 | -11 | -2 | -2 | 5 | -0.3 | -9 | -1 | -4.7
Cc1cccc(NC(=O)CN2CCN(C(=O)c3cnn(Cc4ccccc4)c3)CC2)c1C
→ -3.5 | . | . | . | 4 | -2 | 0.0 | -2 | 5 | -1.4
O=C(Cc1ccc(F)cc1)Nc1nc(-c2ccc(F)cc2)cs1
→ 1.3 | -5 | -2 | -3 | 2 | -1 | 1.0 | -5 | -7 | 1.1
COC(=O)C1=C(C)Nc2nnnn2C1c1ccco1 (stereo unspecified)
→ 9.4 | -4 | 0 | 1 | -3 | 6 | -0.1 | . | . | .
CCc1noc(C)c1C(=O)OCC(=O)Nc1c(F)cccc1F
→ -2.5 | -7 | -22 | 2 | 2 | -3 | -0.1 | -2 | 1 | -2.7
NC(=O)c1ccc(NC(=O)C2CCCO2)cc1 (stereo unspecified)
→ -3.3 | -22 | -11 | -5 | -10 | -2 | 0.0 | . | . | .
C#CCOCCOCCOCCNc1nc(N2CCN(C(=O)Cn3cc(CCCN=C(N)N)nn3)CC2)nc(N2CCN(C(=O)[C@H](CCCCN)n3cc(CC(C)O)nn3)CC2)n1 (stereo partly specified)
→ 1.8 | . | . | . | -1 | 3 | 0.2 | 10 | 11 | -0.2
Cc1ccc(NC(=O)CN2C(=O)NC3(CCCCCC3)C2=O)cc1Cl
→ 4.6 | . | -1 | . | -4 | -1 | 0.4 | -1 | -10 | 1.5
O=C(NCC(c1ccco1)N1CCN(c2ccc(F)cc2)CC1)C1CCCCC1 (stereo unspecified)
→ 5.9 | 11 | 47 | 22 | 1 | 3 | 0.6 | -10 | -25 | 0.8
Cc1ccc(CCC(=O)Nc2ccc(C#N)cc2)o1
→ -2.8 | 5 | 16 | -1 | . | 2 | 2.1 | 6 | 10 | -3.7
COc1ccc(N(CC(=O)NC2CC3CCC2C3)S(=O)(=O)c2ccc(C)cc2)cc1OC (stereo unspecified)
→ -4.3 | 13 | 0 | -1 | 4 | -6 | 0.1 | -2 | 8 | -2.1
CCOCC(=O)Nc1ccccc1C(=O)OCC
→ -2.5 | 3 | 0 | 8 | 6 | -1 | -0.1 | . | . | .
Clc1cc2c(nn1)Nc1ccccc1S2
→ -1.1 | -22 | -10 | -1 | -3 | 18 | -0.1 | 1 | -10 | -4.8
N#CCn1nnc(-c2ccc3c(c2)OCO3)n1
→ 3.9 | 1 | 1 | 16 | -8 | 4 | 6.7* | . | . | .
Cc1cccc(NC(=O)[C@H](Cc2ccccc2)NC(=O)[C@@H]2Cc3ccccc3CN2)c1
→ 0.4 | -14 | -18 | 8 | -7 | 0 | -0.8 | 3 | -21 | -1.1
Cc1ccc2[nH]c3c(=O)n(N)c(C)nc3c2c1
→ -5.4 | -25 | -7 | -10 | 0 | 0 | -5.4 | 17 | 18 | 1.6
CC(C)C[C@@H](CO)N1CCN(Cc2ccc(Br)cc2)CCC1=O
→ -3.2 | -7 | . | -3 | 5 | -3 | 0.7 | -1 | -1 | -5.8
COc1ccccc1C(=O)NCCC(=O)Nc1ccc(S(=O)(=O)N2CCCC(C)C2)cc1 (stereo unspecified)
→ 0.8 | . | -12 | . | 1 | -1 | -1.5 | -6 | -26 | 5.9
O=S(=O)(Nc1cccc2ccccc12)c1ccccc1F
→ -2.3 | -9 | 21 | -3 | -5 | 5 | 1.2 | 3 | -4 | -2.2
CC(NC(=O)C(C)N1C(=O)C2C3CC(C(Br)C3Br)C2C1=O)c1ccccc1 (stereo unspecified)
→ -2.7 | -7 | -3 | 3 | 3 | 2 | -0.3 | -21 | -40 | -6.6
O=c1[nH]c(SCc2cccc(F)c2)nc2ccccc12
→ -3.7 | . | -18 | -5 | -4 | 4 | 0.6 | 2 | 5 | -1.5
CC(C)c1nnc(NC(=O)CS(=O)(=O)c2ccccc2)s1
→ -0.9 | -8 | 3 | 0 | -4 | -5 | -0.1 | -1 | 13 | -0.7
CC1CCN(C(=O)N2c3ccccc3Sc3ccccc32)CC1
→ 2.4 | 5 | 89* | 44 | 12 | 25 | 0.9 | . | . | .
CC(Sc1nc2ccccc2o1)C(=O)O (stereo unspecified)
→ 1.3 | -5 | -59 | 33 | -6 | 2 | 0.6 | . | . | .
CN(c1ccccc1)c1nc(N)c([N+](=O)[O-])c(NC2CCCCC2)n1
→ 1.9 | 32 | -3 | 4 | -5 | 5 | 0.6 | 3 | 1 | -0.7
CCN(CC(=O)Nc1ccc(N2CCOCC2)cc1)C(=O)COc1ccccc1OC
→ 10* | 8 | 91* | 0 | 0 | -8 | -0.5 | -1 | -4 | 0.3
Cc1nnc2c(NC3CCCCC3)nc3ccccc3n12
→ -3.8 | -12 | -1 | 5 | 4 | -24 | -0.6 | 10 | 7 | 1.6
COc1ccc(C(=O)O)cc1S(N)(=O)=O
→ . | -11 | -1 | 12 | -1 | 11 | -0.7 | 22 | 22 | 3.3
Cc1ccccc1N1C(N)=NC(N)=NC1(C)C
→ 4.2 | -11 | . | 20 | -3 | 8 | 0.0 | . | . | .
COc1cc2c3c(c1)/C(=C1/SC(NC(C)=O)=NC1=O)C(=O)N3C(C)(C)C=C2C
→ -1.5 | -4 | 11 | -7 | 1 | 5 | -0.4 | . | . | .
COc1ccc([C@H]2CC(=O)C=C(c3ccc(SC)cc3)C2)cc1OC
→ -1.9 | . | -5 | . | -9 | -4 | -0.2 | 1 | 4 | 0.7
CC(=O)Nc1ccc(S(=O)(=O)N2CCSc3ccccc32)cc1
→ 7.5 | . | -8 | . | 8 | -2 | 0.5 | -4 | -15 | -5.3
O=C(O)c1ccccc1SCc1cn2cc(Cl)ccc2n1
→ -0.1 | -10 | -3 | -2 | 5 | -5 | -1.4 | 9 | 12 | 1.9
Cc1ccc(S(=O)(=O)N2[C@@H](c3ccc(Br)cc3)C(C(=O)O)=C[C@H]2CC2CCCC2)cc1
→ 0.4 | . | . | . | -10 | 9 | -0.6 | -11 | -28 | -5.6
CCN(CC)C(=O)c1c(C)nc2ccccn12
→ -11 | -6 | -7 | 1 | 0 | -4 | -1.0 | . | . | .
O=C(Nc1ccc(N2CCOCC2)c2nonc12)C1CCCC1
→ -1.2 | -14 | -20 | -9 | 2 | -4 | -1.3 | . | . | .
Oc1ccc(/C=N\Nc2cc(N3CCOCC3)nc(N3CCOCC3)n2)c(O)c1
→ 6.2 | 10 | 85* | -1 | -3 | 24 | 1.4 | 4 | 6 | 13
COc1ccc(N(C(=O)C2CCCCC2)C2C=CS(=O)(=O)C2)c(OC)c1 (stereo unspecified)
→ 4.4 | -6 | 9 | -12 | -3 | 0 | -0.1 | 3 | 11 | 0.6
